Vaccinia stage: blocks a specific stage of Vaccinia orthopoxvirus infection; Vaccinia-infected cells, mCherry/Venus stage reporter fluorescence; hits give low values; some inactives read as strong as hits; activity change (mCherry), % (no concentration beside the values); 89,000 compounds, 0.01% hits; AID 1053133;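 active = mCherry past -33% and 40 or more points under the early reporter, replicates agreeing; inconclusive = past -33% without that gap or agreement; tested in A549 cells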;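 note: scaled between vehicle wells and reference inhibitor wells; 23 nL library stock went into each well; one replicate is shown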
Vaccinia stage Venus: second read-out of Vaccinia stage, no call of its own (marks repeat the call); activity change (Venus), %; measured here: Venus reporter, other viral stage;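 negative = less Venus signal; first of two replicates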
An asterisk follows results filed as active; ? = inconclusive; / = no result given. A portion of the library (hit frequency here may not be typical).

SMILES	Vaccinia stage	Vaccinia stage Venus
C[C@@H]1CCCCO[C@@H](CN(C)C(=O)c2ccccc2)[C@@H](C)CN([C@H](C)CO)C(=O)c2cc(NS(=O)(=O)c3ccccc3)ccc2O1	39	16
COCC(=O)N1CCCCN2[C@@H](CO)[C@@H](c3ccc(-c4ccc(F)cc4)cc3)[C@@H]2C1	-9	-11
C[C@@H]1CN([C@@H](C)CO)C(=O)Cc2cc(NC(=O)c3ccncc3)ccc2O[C@H]1CN(C)S(=O)(=O)c1ccc(F)cc1	-4	-8
O=C(NCc1ccccn1)[C@H]1[C@H](CO)[C@H]2Cn3c(cccc3=O)[C@@H]1N2CC1CCCC1	4	0
CO[C@H]1CC[C@H]2CCOc3ccc(C#N)cc3C(=O)N(C)C[C@H](OC)[C@@H](C)C(=O)N(C)C[C@@H]1O2	13	13
CC(C)NC(=O)N1CC2(C1)[C@H](c1ccccc1)[C@@H](CO)N2C(=O)c1ccccn1	0	7
COCC(=O)N(C)C[C@H]1Oc2ncc(C#Cc3ccc(F)cc3)cc2C(=O)N([C@H](C)CO)C[C@H]1C	13	2
Cc1noc(C)c1S(=O)(=O)N(C)C[C@@H]1Oc2ccc(NC(=O)Cn3cnnn3)cc2CC(=O)N([C@@H](C)CO)C[C@H]1C	5	0
C[C@H](CO)N1C[C@H](C)[C@H](CN(C)C)OCCCC[C@H](C)Oc2ccc(NC(=O)Nc3ccc4c(c3)OCO4)cc2C1=O	7	2
C[C@@H]1CN([C@@H](C)CO)C(=O)c2cc(NC(=O)CCCCCC(=O)Nc3ccccc3N)ccc2O[C@H]1CN(C)S(C)(=O)=O	16	15
Cc1noc(C)c1NC(=O)Nc1cccc2c1O[C@@H](CN(C)C)[C@H](C)CN([C@@H](C)CO)C2=O	21	7
CCN(C[C@H]1N[C@H](CO)[C@H]1c1ccccc1)C(=O)c1ccncc1	7	7
O=C(C[C@H]1CC[C@@H]2[C@H](COC[C@@H](O)CN2C(=O)c2cccnc2)O1)NCC1CC1	19	10
C[C@H]1CN([C@@H](C)CO)C(=O)c2cccc(NS(=O)(=O)c3cccs3)c2O[C@@H]1CN(C)C(=O)Nc1cccc2ccccc12	3	11
CC(C)NC(=O)N1[C@@H]2c3ccc(-c4cccc(C(=O)N(C)C)c4)c(=O)n3C[C@H]1[C@H](CO)[C@H]2C(=O)O	7	12
Cc1ccc(CN2CC(=O)N3[C@@H](CO)[C@@H](c4ccc(Br)cc4)[C@@H]3C2)cc1	12	5
CNC(=O)C[C@@H]1CC[C@H]2[C@@H](COC[C@@H](O)CN2S(=O)(=O)c2cccc(Cl)c2)O1	7	3
CC(C)CC#Cc1cnc2c(c1)C(=O)N([C@H](C)CO)C[C@@H](C)[C@H](CN(C)C(=O)NC1CCCC1)O2	-12	-9
O=C(c1cccc(F)c1)N1C[C@@H]2[C@H](c3ccccc31)[C@@H](CO)N2C(=O)C1CCOCC1	27	16
CC(C)NC(=O)N(C)C[C@H]1Oc2ncc(C#CCc3ccccc3)cc2C(=O)N([C@@H](C)CO)C[C@@H]1C	11	5
O=C(C[C@H]1C=C[C@@H](NC(=O)C2CCOCC2)[C@H](CO)O1)NCc1ccncc1	0	1
COc1ccc(S(=O)(=O)Nc2ccc3c(c2)CC(=O)N([C@@H](C)CO)C[C@@H](C)[C@@H](CN(C)CC2CCCCC2)O3)cc1	-27	-13
CCc1cnc(N2[C@H](CO)[C@H](c3ccc(C#CC(C)C)cc3)[C@@H]2C#N)s1	-3	1
C[C@@H]1CN([C@H](C)CO)C(=O)c2cc(NC(=O)Nc3cccc4ccccc34)ccc2O[C@@H](C)CCCCO[C@H]1CN(C)S(=O)(=O)c1ccccc1	15	11
C[C@H](CO)N1C[C@H](C)[C@H](CN(C)C(=O)Nc2ccc(F)cc2)Oc2ccc(NC(=O)CCCCCC(=O)Nc3ccccc3N)cc2CC1=O	11	5
CCCC#Cc1ccc2c(c1)O[C@H](CN(C)C(=O)c1ccccn1)[C@@H](C)CN([C@H](C)CO)S2(=O)=O	-8	-9
C[C@H](CO)N1C[C@H](C)[C@H](CN(C)C(=O)c2ccccc2)Oc2cc(C3=CCCC3)ccc2S1(=O)=O	17	13
C/C=C/c1ccc([C@H]2[C@@H](CO)N(S(C)(=O)=O)[C@@H]2CN(C)C(=O)CC)cc1	1	4
C[C@H](CO)N1C[C@H](C)[C@H](CN(C)C(=O)Nc2cccc3ccccc23)Oc2ccc(NC(=O)Nc3ccc(F)cc3)cc2C1=O	19	17
Cc1noc(C)c1S(=O)(=O)Nc1cccc2c1O[C@H](CN(C)CC1CCCCC1)[C@H](C)CN([C@@H](C)CO)C2=O	17	5
C[C@@H]1CN([C@H](C)CO)C(=O)c2cc(NS(=O)(=O)c3ccccc3)ccc2O[C@@H](C)CCCCO[C@H]1CN(C)S(=O)(=O)c1ccc(Cl)cc1	-32	-28
O=C(Nc1ccc(F)cc1)N1C[C@H]2[C@@H](c3ccccc31)[C@H](CO)N2C(=O)c1ccccn1	9	11
COc1ccc(S(=O)(=O)Nc2ccc3c(c2)CC(=O)N([C@H](C)CO)C[C@@H](C)[C@H](CN(C)Cc2ccc(Oc4ccccc4)cc2)O3)cc1	-25	-20
C[C@H]1CN([C@@H](C)CO)S(=O)(=O)c2ccc(Br)cc2O[C@@H]1CN(C)C(=O)c1cccnc1	21	18
CCCN(C)C[C@@H]1OCCCC[C@@H](C)Oc2ccc(NS(=O)(=O)c3ccc(C)cc3)cc2C(=O)N([C@@H](C)CO)C[C@@H]1C	-24	-18
COc1cccc(S(=O)(=O)Nc2ccc3c(c2)[C@H]2C[C@@H](CC(=O)N4CCCCC4)O[C@H](CO)[C@H]2O3)c1	-1	3
CN(C)CC(=O)N[C@@H]1CC[C@H](CCNC(=O)C2CCCCC2)O[C@@H]1CO	-1	-8
Cc1ccc(S(=O)(=O)N(C)C[C@@H]2Oc3ccc(NC(=O)Nc4cccc5ccccc45)cc3CC(=O)N([C@H](C)CO)C[C@@H]2C)cc1	-29	-33
C[C@@H]1CN([C@@H](C)CO)C(=O)c2cc(C3=CCCC3)cnc2O[C@H]1CN(C)C(=O)c1ccc(F)cc1	20	14
COc1ccc(NC(=O)Nc2ccc3c(c2)C(=O)N([C@H](C)CO)C[C@H](C)[C@H](CN(C)S(=O)(=O)c2ccc(F)cc2)OCCCC[C@H](C)O3)cc1	-9	-4
C[C@@H]1CN([C@H](C)CO)S(=O)(=O)c2ccc(C#CC(C)(C)O)cc2O[C@H]1CN(C)C(=O)C1CCC1	10	4
CN(C)C(=O)C[C@H]1CC[C@H](NC(=O)C2CCOCC2)[C@H](CO)O1	2	6
C[C@@H]1CN([C@@H](C)CO)C(=O)CCCn2nncc2CO[C@H]1CN(C)S(=O)(=O)c1ccc(Oc2ccccc2)nc1	1	8
C[C@H](CO)N1C[C@H](C)[C@H](CN(C)C(=O)NC2CCCCC2)Oc2c(NC(=O)C3CCCCC3)cccc2C1=O	-8	-1
C[C@@H]1CN([C@H](C)CO)C(=O)c2cc(NC(=O)C3CC3)ccc2O[C@H]1CN(C)S(=O)(=O)c1ccccc1	29	9
CNC[C@H]1OCCCC[C@H](C)Oc2ccc(NS(=O)(=O)c3ccc(Cl)cc3)cc2C(=O)N([C@@H](C)CO)C[C@@H]1C	-1	4
Cc1ccc(S(=O)(=O)N[C@H]2CC[C@H](CCNC(=O)c3ccccc3F)O[C@@H]2CO)cc1	-9	6
CN1CCN(C(=O)C[C@@H]2C[C@@H]3c4cc(NC(=O)CC5CC5)ccc4O[C@@H]3[C@H](CO)O2)CC1	4	11
C[C@H](CO)N1C[C@H](C)[C@@H](CN(C)Cc2ccccc2)Oc2cc(-c3ccncc3)ccc2S1(=O)=O	?	/
C[C@H](CO)N1C[C@H](C)[C@H](CN(C)Cc2ccc(C(F)(F)F)cc2)Oc2ccc(NC(=O)Cc3cn(C)c4ccccc34)cc2C1=O	-13	-21

Later entries.
SMILES	Vaccinia stage	Vaccinia stage Venus
C[C@H]1CCCCO[C@H](CN(C)C(=O)NC2CCCCC2)[C@@H](C)CN([C@@H](C)CO)C(=O)c2cc(NC(=O)CCCN(C)C)ccc2O1	-2	6
CCCNC(=O)C[C@H]1CC[C@H]2[C@@H](COc3ccc(NC(=O)c4cc(C)on4)cc3C(=O)N2C)O1	0	10
C[C@@H]1CN([C@H](C)CO)C(=O)c2cc(C#CC3CCCCC3)cnc2O[C@@H]1CN(C)S(=O)(=O)c1cccc(F)c1	?	/
C[C@@H]1CN([C@@H](C)CO)C(=O)c2cc(N(C)C)ccc2O[C@@H]1CN(C)C(=O)Nc1ccc(C(F)(F)F)cc1	5	4
O=C(Nc1ccc(F)cc1)N[C@H]1CC[C@@H](CCn2cc(-c3ccccc3F)nn2)O[C@@H]1CO	4	5
C[C@@H]1CCCCO[C@@H](CN(C)C(=O)CCCN(C)C)[C@H](C)CN([C@@H](C)CO)C(=O)c2cc(NC(=O)C3CCCCC3)ccc2O1	10	-4
COc1ccccc1NC(=O)N[C@H]1CC[C@@H](CC(=O)N[C@@H](C)c2ccccc2)O[C@H]1CO	1	5
COCC(=O)NC[C@@H]1N[C@@H](CO)[C@H]1c1ccc(-c2ccccc2F)cc1	-17	3
CO[C@@H]1CN(C)C(=O)c2ccc(NC(=O)NC(C)C)cc2OC[C@@H](C)N(C(=O)CN(C)C)C[C@H]1C	8	7
Cc1ccc(S(=O)(=O)N[C@H]2C=C[C@@H](CC(=O)NCCN3CCCCC3)O[C@H]2CO)cc1	2	5
C[C@H](CO)N1C[C@H](C)[C@H](CN(C)Cc2ccc(C(F)(F)F)cc2)Oc2c(NC(=O)c3ccc(-c4nccs4)cc3)cccc2C1=O	?	/
C[C@@H]1CN([C@H](C)CO)C(=O)c2cccc(NC(=O)C3CCCCC3)c2O[C@H]1CN(C)C(=O)Nc1cccc2ccccc12	8	4
CCNC(=O)C[C@H]1CC[C@@H](NC(=O)C2CCC2)[C@@H](CO)O1	7	-1
CN1C(=O)c2cc(NC(=O)Cc3cccs3)ccc2OC[C@H]2O[C@@H](CC(=O)NCCc3ccncc3)CC[C@@H]21	4	8
C[C@H](O)C#Cc1ccc([C@H]2[C@H]3CN(C(=O)c4cccc(F)c4)CCCCN3[C@H]2CO)cc1	-24	-17
Cc1ccc(S(=O)(=O)Nc2ccc3c(c2)C(=O)N([C@@H](C)CO)C[C@@H](C)[C@H](CN(C)Cc2ccc(-c4ccccc4)cc2)O3)cc1	-35	-27
CC(C)NC(=O)N(C)C[C@@H]1Oc2c(NC(=O)NC3CCCCC3)cccc2C(=O)N([C@H](C)CO)C[C@@H]1C	4	2
CO[C@@H]1CN(C)C(=O)c2cc(NC(=O)NC3CCCCC3)ccc2OC[C@@H](C)N(CC2CCOCC2)C[C@@H]1C	4	1
C[C@H]1CN([C@@H](C)CO)C(=O)Cc2cc(NS(C)(=O)=O)ccc2O[C@H]1CN(C)C	2	10
NCCCCCNC(=O)[C@H]1C[C@H]2C(=O)NCC(=O)N2[C@H]1c1cccc(OCCO)c1	10	4

Compound profiles, as listed above.
Record of CC(C)NC(=O)N(C)C[C@@H]1Oc2c(NC(=O)NC3CCCCC3)cccc2C(=O)N([C@H](C)CO)C[C@@H]1C = Vaccinia stage = 4; Vaccinia stage Venus = 2
Record of C[C@H](CO)N1C[C@H](C)[C@H](CN(C)Cc2ccc(C(F)(F)F)cc2)Oc2c(NC(=O)c3ccc(-c4nccs4)cc3)cccc2C1=O = Vaccinia stage = ?; Vaccinia stage Venus = /

Four entries from above, as a markdown table.
| Molecule | Vaccinia stage | Vaccinia stage Venus |
| --- | --- | --- |
| CCNC(=O)C[C@H]1CC[C@@H](NC(=O)C2CCC2)[C@@H](CO)O1 | 7 | -1 |
| CN1C(=O)c2cc(NC(=O)Cc3cccs3)ccc2OC[C@H]2O[C@@H](CC(=O)NCCc3ccncc3)CC[C@@H]21 | 4 | 8 |
| C[C@H](O)C#Cc1ccc([C@H]2[C@H]3CN(C(=O)c4cccc(F)c4)CCCCN3[C@H]2CO)cc1 | -24 | -17 |
| Cc1ccc(S(=O)(=O)Nc2ccc3c(c2)C(=O)N([C@@H](C)CO)C[C@@H](C)[C@H](CN(C)Cc2ccc(-c4ccccc4)cc2)O3)cc1 | -35 | -27 |

Additional compounds
SMILES	Vaccinia stage	Vaccinia stage Venus
COc1ccc(S(=O)(=O)Nc2ccc3c(c2)CC(=O)N([C@@H](C)CO)C[C@H](C)[C@H](CN(C)Cc2ccc4c(c2)OCO4)O3)cc1	-12	-3
CCCNC(=O)C[C@H]1CC[C@@H]2[C@H](COC[C@@H](O)CN2C(=O)c2cc(Cl)cc(Cl)c2)O1	2	10
CNC[C@H]1Oc2ccc(NS(=O)(=O)c3ccc(Cl)cc3)cc2C(=O)N([C@@H](C)CO)C[C@H]1C	1	5
CC(=O)N(C)C[C@@H]1Oc2ncc(C#CC(C)(C)O)cc2C(=O)N([C@H](C)CO)C[C@H]1C	12	11
COc1ccc(S(=O)(=O)Nc2ccc3c(c2)C(=O)N([C@H](C)CO)C[C@@H](C)[C@@H](CN(C)S(=O)(=O)c2ccc(C)cc2)OCCCC[C@@H](C)O3)cc1	-27	-24
CN1C[C@@H]2[C@H](c3ccccc31)[C@H](CO)N2Cc1ccccc1F	-6	-9
Cc1noc(C)c1S(=O)(=O)N(C)C[C@H]1Oc2ccc(NC(=O)Nc3cccc4ccccc34)cc2CC(=O)N([C@H](C)CO)C[C@H]1C	1	12
C[C@H]1CN([C@@H](C)CO)C(=O)c2cccc(NS(=O)(=O)c3ccc(Cl)cc3)c2O[C@H]1CN(C)S(C)(=O)=O	12	4
C[C@H]1CCCCO[C@H](CN(C)Cc2ccc(C(F)(F)F)cc2)[C@@H](C)CN([C@@H](C)CO)C(=O)c2cc(NS(=O)(=O)c3ccc(F)cc3)ccc2O1	?	/

From PubChem
